Compound activity as filed in PubChem BioAssay.
VDR inhibitor – vitamin D3 receptor (human) inhibition; Potency, µM, for inactives: max response, negative = inhibition, actives largely listed as inhibitors; AID 504847; P11473; VDR-SRC2-3 peptide fluorescence polarization, 2 h; hit rate 0.93% among 400,000; active = well fitted inhibition curve with a large enough effect; inconclusive = small, poorly fitted or top-dose-only effect, or another doubt; inactive = no such curve, though single readings can be large or run the other way; also: series mostly up to about 120 µM
Target sequence (P11473 whole entry, looked up): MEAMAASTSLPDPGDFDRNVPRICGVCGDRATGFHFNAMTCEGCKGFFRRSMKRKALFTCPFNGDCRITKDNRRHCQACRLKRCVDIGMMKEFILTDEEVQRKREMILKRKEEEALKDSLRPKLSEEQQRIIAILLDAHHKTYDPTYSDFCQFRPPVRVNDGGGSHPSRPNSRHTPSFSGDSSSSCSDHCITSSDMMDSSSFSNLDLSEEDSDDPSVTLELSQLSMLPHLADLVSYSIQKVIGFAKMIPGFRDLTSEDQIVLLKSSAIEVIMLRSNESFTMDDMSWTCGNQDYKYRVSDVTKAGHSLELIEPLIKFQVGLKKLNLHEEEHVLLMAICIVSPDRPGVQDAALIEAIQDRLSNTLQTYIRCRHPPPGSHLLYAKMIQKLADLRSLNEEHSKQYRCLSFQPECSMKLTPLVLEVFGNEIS
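FP read-out; VDR + SRC2-3 coactivator peptide; 23 nl compound by pintool; 2 h RT incubation; reagents held at 4 deg C, protected from light.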
Active calls of the source: *; ? = inconclusive; & = joins results of further samples. % is scaled to controls: 0 for no effect and ±100 for the full control effect; potency is read from the fitted curve at half-maximal effect. This is a subset; count on the stated rates, not on these rows.

smiles | VDR inhibitor
COc1cc(C(=O)Nc2cc3c(cc2N2CCCCC2)n(C)c(=O)n3C)cc(OC)c1OC | -19%
O=C(OCc1ccc([N+](=O)[O-])cc1)C1CC(=O)N(Cc2ccccc2)C1 (centres undefined) | 1%
Cc1cc(C)cc(NC(=O)c2cc(S(=O)(=O)NCc3ccco3)ccc2F)c1 | 7%
Cc1cc(C(=O)Cn2ncc(Cl)c(Cl)c2=O)c(C)n1CC(F)(F)F | 3%
CSc1ccccc1C(=O)NCC(c1ccco1)N1CCCCC1 (centres undefined) | 7%
Clc1cccc(N2CCN(c3ncnc4c3nc3n4CCCCC3)CC2)c1 | ?
COc1ccc(C2CC(c3ccccc3)=NN2C(=O)CCCC(=O)O)cc1 (centres undefined) | 13%
Cc1oc(-c2cccs2)nc1CSCC(=O)NC1CC1 | -19%
O=S(=O)([N-]c1nc2ccccc2nc1-[n+]1ccc(Cc2ccccc2)cc1)c1ccc(Br)s1 | -5%
CCN(CC)S(=O)(=O)c1cccc(C(=O)NC(Cc2c[nH]c3ccccc23)c2nnc3n2CCCCC3)c1 (centres undefined) | 2%
CCCN(CC(=O)Nc1ccccc1C)C(=O)CCCc1c[nH]c2ccccc12 | -14%
O=C(O)CCC(=O)NCc1ccc(F)cc1 | 20%
Cc1ccc(-c2nc(C(Cl)Cl)c3ccccc3n2)cc1 | 21%
O=C(CSc1nncn1-c1ccccc1)NC1CCCc2ccccc21 (centres undefined) | -7%
COc1ccc(S(=O)(=O)n2c([N+](=O)[O-])cnc2C)c(C)c1C | -5%
CN(C(=O)c1cccc(NC(=O)Cc2cccc([N+](=O)[O-])c2)c1)C1CCCC1 | -20%
COc1cc(C(C2=C(O)CC(C)(C)CC2=O)C2C(=O)CC(C)(C)CC2=O)cc(OC)c1OC (centres undefined) | ?
O=c1oc2ccc(Br)cc2cc1-c1csc(-c2ccccc2)n1 | 6%
COc1ccc(Cc2nc(-c3ccc(Br)cc3)no2)cc1 | 5%
O=S(=O)(Cc1ccccc1)C(CCCc1ccccc1)S(=O)(=O)Cc1ccccc1 | -11%
COC(=O)c1ccc(C(=O)OC)c(NC(=O)Oc2ccccc2)c1 | 0%
Cc1ccc2nc(NC(=O)c3cc(-c4ccco4)nc4ccccc34)sc2c1 | -6%
COc1ccc(-c2cccc(NS(=O)(=O)c3cccs3)c2)nn1 | -4%
COC(=O)C1=CN(CC2CCCO2)C=C(C(=O)OC)C1c1ccsc1 (centres undefined) | 12%
COc1cccc(-c2sc3ccc(OC)cc3c2-c2ccc(C(N)=O)cc2)c1 | -11%
Cc1ccc(-c2nc3ncccc3o2)cc1NC(=O)c1ccc(-c2ccc(Cl)cc2)o1 | -2%
O=C(O)c1cccc(-n2nnnc2SCc2ccccn2)c1 | 8%
C/C(=N\NC(=O)c1cccs1)c1ccc(C(=O)O)s1 | -4%
O=C(Cc1ccc(Cl)cc1Cl)NCC1(N2CCOCC2)CCCCC1 | 14%
CC(C)(C)c1ccc(C(=O)NCC2CCCN2S(=O)(=O)c2ccccc2)cc1 (centres undefined) | -17%
O=C(NC1CCCCCC1)C1CCN(S(=O)(=O)c2ccccc2)CC1 | -9%
CCN(CC)CCCN(Cc1cc2cc3c(cc2[nH]c1=O)OCO3)C(=S)Nc1ccc(OC)cc1 | -12%
CC(=O)Nc1ccc(NS(=O)(=O)c2ccc(Cl)c(C(=O)O)c2)cc1 | 8%
O=C1NCC(c2ccccc2)(c2ccccc2)C(=O)N1 | -17%
CCCCCC(=O)C(=O)c1ccc(O)cc1O | -20%
COc1cc(C)c(S(=O)(=O)NOCc2ccc([N+](=O)[O-])cc2)c(C)c1C | 4%
O=C(N1CCOCC1)n1cnc2ccccc21 | 0%
COCCNC(=O)/C(C#N)=C/c1c(N2CCCCCC2)nc2ccccn2c1=O | -9%
COc1ccc(O)c(C(=O)c2cnc3c(c2)c(C)nn3CCO)c1 | -7%
Cc1ccc(C)c(NC(=O)Cn2ccn(-c3ccc4c(c3)OCO4)c(=O)c2=O)c1 | -22%
CCOC(=O)CNC(=O)C1c2ccccc2C(=O)N(c2ccc(OC)cc2)C1c1ccc(OC)cc1 (centres undefined) | -13%
COc1ccc(OC)c(-n2cnc3cc(C(=O)O)ccc32)c1 | -5%
O=S(=O)(c1ccc(F)cc1)N1CCN(CCc2ccccc2)CC1 | -2%
O=C(COC(=O)C(Cc1ccccc1)NC(=O)c1cccs1)NCc1ccccc1 (centres undefined) | 4%
Cc1cc2c3c(c1)C1(SCC(=O)N1c1ccc(F)cc1)C(=O)N3C(C)(C)CC2C (centres undefined) | -24%
COC(=O)c1ccc(Cn2nc(-c3ccccc3)ccc2=O)cc1 | 21%
Cc1ccccc1Cc1c(C)nc2c(C(=O)NCc3ccco3)cnn2c1C | ?
Clc1ccc(Cl)c(-c2nn3c(COc4ccccc4)nnc3s2)c1 | ?
CCc1ccc(NCc2cc3cc4c(cc3n(CC(=O)Nc3cccc(OC)c3)c2=O)OCO4)cc1 | 10%
Cn1cc([N+](=O)[O-])c(C(=O)Nc2ccc(Br)cn2)n1 | 11%

Single values from the list:
O=C(Cc1ccc(Cl)cc1Cl)NCC1(N2CCOCC2)CCCCC1 – VDR inhibitor = 14%
COc1cc(C)c(S(=O)(=O)NOCc2ccc([N+](=O)[O-])cc2)c(C)c1C – VDR inhibitor = 4%
O=C(O)c1cccc(-n2nnnc2SCc2ccccn2)c1 – VDR inhibitor = 8%

Reformatted: 2 of the compounds above.
VDR inhibitor	SMILES
-12%	CCN(CC)CCCN(Cc1cc2cc3c(cc2[nH]c1=O)OCO3)C(=S)Nc1ccc(OC)cc1
-4%	C/C(=N\NC(=O)c1cccs1)c1ccc(C(=O)O)s1

Next part.
smiles | VDR inhibitor
COCC(C)NC(=O)COc1nncc2ccccc12 (centres undefined) | 1%
CC1CCc2c(sc(Nc3nc4c(F)cccc4s3)c2C(N)=O)C1 (centres undefined) | -29%
CC(C)(C)n1nnnc1C(c1cccs1)N1CCN(Cc2ccccc2)CC1 (centres undefined) | 6%
COc1ccc(CN2CCN(S(=O)(=O)c3ccc(C)cc3)CC2)cc1Br | -9%
CC(c1ccco1)N(C(=O)c1ccccc1NS(=O)(=O)c1ccc(Cl)c([N+](=O)[O-])c1)c1ccccn1 (centres undefined) | -10%
O=C(COC(=O)/C=C/c1cccs1)NC1CCCCC1 | 7%
O=C(Nc1nnc(-c2ccc(Cl)cc2)o1)NC1CCCCC1 | 3%
O=C(Nc1ccc(S(=O)(=O)N2CCCC2)cc1)C1CC(=O)N(c2ccc(F)cc2)C1 (centres undefined) | 8%
CCC(NC(=O)c1cc(COc2cc(C)c(Cl)c(C)c2)on1)c1ccncc1 (centres undefined) | -19%
O=[N+]([O-])c1ccccc1-c1ccc(C(=S)N2CCCCC2)o1 | ?
Cc1ccc(Cn2c(=O)n(CCCCC(=O)NCc3ccccc3Cl)c(=O)c3ccccc32)cc1 | 12%
Cc1ccc(NC(=O)CSCC(=O)NCc2cccc(C(F)(F)F)c2)cc1 | 0%
Cc1nc2ccccc2c(=O)n1NC(=O)c1ccco1 | -7%
CC1CCN(C(=O)CN2C(=O)c3cccc4cccc(c34)C2=O)CC1 | -12%
CCOC(=O)C1=C(C)OC(N)=C(C#N)C1c1cc(F)ccc1F (centres undefined) | 1%
CCCCn1c(/C=N/Nc2nc3ccccc3[nH]2)nc2ccccc21 | -22%
CCN(CC)c1ccc(C2Nc3cccc4cccc(c34)N2)cc1 | -3%
COc1ccc(CN2CCN(c3ccccn3)CC2)cc1OCc1ccccc1 | 2%
COc1ccc(Oc2nc(-c3ccncc3)nc3ccccc23)cc1 | -4%
NS(=O)(=O)c1ccc(CCNC(=O)Nc2ccc(Cl)c(Cl)c2)cc1 | -4%
Cc1ccc(N2CCN(S(=O)(=O)c3c(C)[nH]c(=O)[nH]c3=O)CC2C)cc1 (centres undefined) | 10%
Cc1nn(Cc2c(F)cccc2Cl)c(C)c1[N+](=O)[O-] | 15%
CCOC(=O)c1nn(C)c2[nH]c(=O)n(C)c(=O)c12 | 5%
Cc1ccccc1OCCCSc1nc2ccccc2[nH]1 | -23%
COc1cc(CNCc2ccccn2)ccc1OCC(=O)NC(C)(C)C | -6%
CCC(C)NC(=O)c1ccc(C)c(NC(=O)C2=C(C)OCCS2)c1 (centres undefined) | 4%
O=C(NCc1ccc2c3c(cccc13)C(=O)N2)c1cccs1 | 8%
Cc1cc(C(F)(F)F)nc(SCC(=O)NC2=NC(=O)C(C)S2)n1 (centres undefined) | -12%
CCOC(=O)c1c(C)[nH]c(C)c1S(=O)(=O)N1CCCC(C(=O)Nc2cccc(C)n2)C1 (centres undefined) | 2%
Cc1nc2ccccc2c2c1CC(C)S2 (centres undefined) | -14%
COc1ccccc1CNc1ncncc1-c1ccccc1Cl | ?
O=C(CSc1ccccc1C(=O)O)c1ccc(Cl)cc1 | 6%
O=C(c1ccc2c(c1)OCCO2)N1CCCCC1 | -8%&5%
O=C(CSc1nc(-c2ccccc2)nc2c1CCCC2)c1ccc(Cl)cc1 | -7%
COc1ccc2c(c1OC)C(=O)N1C2SC(C)(C)[C@H]1C(=O)NCCCOC(C)C (some centres undefined) | 12%
Cc1ccc(C(=O)Oc2ccc(C(=O)COC(=O)c3cnccn3)cc2)cc1 | 0%
CCc1cccc(CC)c1NC(=O)CN1C2CCCC1CC(NC(=O)Nc1cccc(OC)c1)C2 (centres undefined) | 0%
NC(=O)c1nn(-c2ccccc2)nc1NC(=O)CSc1nnnn1-c1ccc(Cl)cc1 | 0%
Cc1ccccc1-c1noc(-c2cccnc2N2CCN(c3ccccc3)CC2)n1 | 10%
CC[N+]1(CC)CC2=Cc3c(ccc4ccccc34)CC2C1 (centres undefined) | 17%
COc1cccc(CNC(=O)CSc2n[nH]c(-c3ccccc3Cl)n2)c1 | 4%
O=C1OC2(c3ccc(O)cc3Oc3cc(O)ccc32)c2ccccc21 | -1%&-2%
CCOc1ccc(OCC)c(NC(=O)c2cc(CN3CCOCC3)on2)c1 | 3%
CCOC(=O)c1ccc(NC(=S)N2CCCC2c2ccc(OC)c(OC)c2)cc1 (centres undefined) | 2%
Nc1nonc1-c1noc(-c2ccc(Br)o2)n1 | 1%
CC(C)(C)c1ccccc1OCCOCCSc1ncccn1 | -12%
O=C(CN1CCN(c2ccc(F)cc2)CC1)NCc1cccs1 | -6%
Cc1nn(-c2ccccc2)c(Cl)c1C1C(C#N)=C(N)Oc2n[nH]c(C)c21 (centres undefined) | -13%
O=C(NC(=S)Nc1ccc(S(=O)(=O)N2CCCC2)cc1)C1CCC1 | -5%
COC(=O)CNC(=O)C(Cc1c[nH]c2ccccc12)NC(=O)OC(C)(C)C (centres undefined) | 12%

Next results follow.
smiles | VDR inhibitor
COc1cc(C2Nc3cccc4cccc(c34)N2)cc(OC)c1O | -15%
Cc1cn([C@H]2C[C@H](O)[C@@H](CCC(=O)NCCN3CCCCC3)O2)c(=O)[nH]c1=O | -27%
COc1ccc(-c2nc3nc(C)cc(Nc4ccc(C(C)=O)cc4)n3n2)cc1 | 25%
O=C(COC(=O)c1cc(=O)c2ccccc2o1)NCc1ccccc1 | 7%
Cc1csc2c(N3CCN(C(=O)Nc4ccccc4)CC3)ncnc12 | -11%
CCC(C(=O)NC(CC(=O)O)c1ccc(Cl)cc1)c1ccccc1 (centres undefined) | 8%
CCn1c(=O)c2cc(C(=O)N(C)c3ccc(OC)cc3OC)sc2c2ccccc21 | -2%
CNC(=S)N1CCc2cc(OC)c(OC)cc2C1 | 6%
N/C(=N/OCc1cccc([N+](=O)[O-])c1)c1nonc1N | -6%
COc1ccc(OC)c(S(=O)(=O)NCc2ccccn2)c1 | -11%
CCCOc1cccc(NC(=O)c2c(-c3ccccc3Cl)noc2C)c1 | -3%
CC(OC(=O)/C=C/c1cccc(F)c1)C(=O)NC1CCCCC1C (centres undefined) | 17%
O=C(O)c1cc([N+](=O)[O-])ccc1NCCc1ccccc1 | -10%
COc1ccc(CN(CC2CCCO2)C(=O)CN2C(=O)C(C)Oc3ccc(C)cc32)cc1OC (centres undefined) | 6%
CCOc1ccccc1C(=O)Nc1ccc(S(=O)(=O)N2CCCCC2c2cccnc2)cc1 (centres undefined) | -7%
CCOC(=O)Cc1ccc(NC(=O)Nc2c[nH]c(=O)[nH]c2=O)cc1 | -17%
COc1cc(S(=O)(=O)N2CCN(C)CC2)c(OC)cc1Br | 3%
CC(=O)NC(NC(C)=O)c1ccc(N(C)C)cc1 | -11%
Cc1cnc(NC(=O)Cc2c[nH]c3ccccc23)s1 | 26%
Cc1noc(C)c1C(=O)Nc1sc2c(c1C(N)=O)CCC2 | -7%
Cc1c(C(=O)OCCN2CCCCC2)oc2ccccc12 | 4%
Cc1ccccc1NC(=O)COC(=O)/C=C/c1cn(-c2ccccc2)nc1-c1cccnc1 | -19%

Shown as labelled records: part of the list above.
O=C(O)c1cc([N+](=O)[O-])ccc1NCCc1ccccc1
  VDR inhibitor = -10%
COc1ccc(CN(CC2CCCO2)C(=O)CN2C(=O)C(C)Oc3ccc(C)cc32)cc1OC (centres undefined)
  VDR inhibitor = 6%
CCOc1ccccc1C(=O)Nc1ccc(S(=O)(=O)N2CCCCC2c2cccnc2)cc1 (centres undefined)
  VDR inhibitor = -7%
CCOC(=O)Cc1ccc(NC(=O)Nc2c[nH]c(=O)[nH]c2=O)cc1
  VDR inhibitor = -17%
